KCNQ2 block: KCNQ2 channel blockers in CHO-K1 cells – cell-based, FluxOR thallium flux, B-score, primary screen (AID 2156); O88943; 20 min; stronger effect = lower value; only compounds with negative scores are shown here; some inactives read as strong as hits; B-score at 10 µM; hit rate 1.1% among 310,000;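 active = fluorescence ratio B-score at most minus 3 library SDs, with starting brightness B-score within 2 library SDs, cut at about -5.5 in these data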
Target sequence (O88943 whole entry, looked up): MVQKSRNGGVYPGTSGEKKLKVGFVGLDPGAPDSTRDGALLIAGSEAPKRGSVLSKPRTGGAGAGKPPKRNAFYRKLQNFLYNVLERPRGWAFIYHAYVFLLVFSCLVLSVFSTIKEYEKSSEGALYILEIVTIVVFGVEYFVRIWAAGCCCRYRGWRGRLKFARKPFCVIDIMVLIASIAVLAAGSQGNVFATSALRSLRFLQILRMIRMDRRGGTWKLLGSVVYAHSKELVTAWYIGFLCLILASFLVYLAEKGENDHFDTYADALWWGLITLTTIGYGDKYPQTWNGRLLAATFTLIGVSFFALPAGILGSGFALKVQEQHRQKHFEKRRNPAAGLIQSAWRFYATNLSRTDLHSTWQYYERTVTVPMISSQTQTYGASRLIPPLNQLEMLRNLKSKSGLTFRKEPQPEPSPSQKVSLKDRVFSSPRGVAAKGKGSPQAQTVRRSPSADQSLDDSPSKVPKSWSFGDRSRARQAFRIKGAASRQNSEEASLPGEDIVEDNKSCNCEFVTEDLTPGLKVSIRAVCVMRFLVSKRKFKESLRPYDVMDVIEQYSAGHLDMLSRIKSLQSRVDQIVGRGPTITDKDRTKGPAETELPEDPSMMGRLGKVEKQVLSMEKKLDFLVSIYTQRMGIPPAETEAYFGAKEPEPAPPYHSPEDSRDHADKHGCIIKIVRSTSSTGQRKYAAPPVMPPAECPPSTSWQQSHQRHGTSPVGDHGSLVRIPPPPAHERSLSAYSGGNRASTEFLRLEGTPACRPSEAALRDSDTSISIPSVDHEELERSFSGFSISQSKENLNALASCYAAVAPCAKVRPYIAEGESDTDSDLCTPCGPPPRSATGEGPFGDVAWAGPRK
KCNQ2 block baseline: recorded beside KCNQ2 block, whose call it bears; B-score; measured here: initial fluorescence intensity artifact check;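 brightness before thallium and not channel activity; 0 = typical well and far values either way flag optical interference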
An asterisk follows results filed as active; i = inactive. A portion of the library. The share of hits here may be higher or lower than overall.

SMILES | KCNQ2 block | KCNQ2 block baseline
CCCCOc1ccc(C(=O)N2CCNC(=O)C2CC(=O)OC(C)C)cc1 (stereo not drawn) | i | -1.31
CCCCOCCCn1c(-c2ccco2)nc2nc3ccccc3nc21 | i | -0.98
O=C(CCNC(=O)c1ccc(Cl)cc1)NCCC1=CCCCC1 | i | 0.68
O=C(OCC1OC(n2cnc3c(N(C(=O)c4ccccc4)C(=O)c4ccccc4)ncnc32)C(O)C1F)c1ccccc1 (stereo not drawn) | i | -2.39
O=C(NNC(=O)C1CCN(c2ncccn2)CC1)c1ccccc1 | i | -0.69
CCN1CCN(Cc2c(O)ccc3c(C)cc(=O)oc23)CC1 | i | -0.03
Nc1ccccc1Nc1cc(-c2ccccc2)[nH]n1 | i | -0.45
CCCCNCc1cc(Br)c(OCC(=O)N2CCOCC2)c(OC)c1 | i | -0.03
Cc1csc(NC(=O)C2CCCC2)n1 | i | 0.51
CC12CCC(C(=O)Nc3cc(Cl)ccc3Cl)(C/C1=N\O)C2(C)C (stereo not drawn) | i | -2.35
O=C(O)/C=C/c1ccccc1Oc1ccc(Cl)cc1Cl | i | -0.47
O=C(NCc1ccc(F)cc1)C1CC(=O)N(C2CCCCCCC2)C1 (stereo not drawn) | i | 1.37
COC(=O)c1ccc(NC(=S)NCCCn2ccnc2)cc1 | i | 2.47
CC(=O)Nc1sc2c(c1CN1CCCC1)CCCC2 | i | -0.97
Cc1nnc(NCc2cccc(Cl)c2)c2ccccc12 | i | 0.52

Four of the compounds above, as tab-separated lines.
canonical_smiles	KCNQ2 block	KCNQ2 block baseline
O=C(CCNC(=O)c1ccc(Cl)cc1)NCCC1=CCCCC1	i	0.68
O=C(NNC(=O)C1CCN(c2ncccn2)CC1)c1ccccc1	i	-0.69
CCCCOCCCn1c(-c2ccco2)nc2nc3ccccc3nc21	i	-0.98
CCCCOc1ccc(C(=O)N2CCNC(=O)C2CC(=O)OC(C)C)cc1 (stereo not drawn)	i	-1.31

New compounds follow:
SMILES | KCNQ2 block | KCNQ2 block baseline
CC(=O)NCCC(=O)Nc1nc(C)c(Cc2ccc3c(c2)OCO3)s1 | i | 0.19
Cc1cc(Oc2nc3c(C)cccn3c(=O)c2/C=C(\C#N)S(=O)(=O)c2ccccc2)ccc1Cl | i | 0.45
CC1CCCN(S(=O)(=O)c2cc3c4c(c2)CCN4C(=O)CC3)C1 (stereo not drawn) | i | -0.1
CCc1ccc(S(=O)(=O)NC2CC(C)(C)NC(C)(C)C2)cc1 | i | -0.08
COc1ccc(C(=O)Nc2ccc(S(=O)(=O)N3CCCC3)cc2)c(OC)c1 | i | -0.04
CC1=NN2C(=N)/C(=C\c3ccc(SCc4ccccc4)o3)C(=O)N=C2S1 | i | -0.27
Nc1c(-c2ccccc2)c(CN2CCOCC2)nn1-c1cccc([N+](=O)[O-])c1 | i | 1.49
O=C(CCCSc1nc2sc3c(c2c(=O)[nH]1)CCC3)NCCCO | i | 0.14
CCSc1nc2ccccc2n1CCOc1ccccc1 | i | -1.07
O=C(CSc1nnc(-c2ccccc2F)n1CCc1ccccc1)Nc1ccc2[nH]c(=O)[nH]c2c1 | i | 0.62
O=C(C1=C[C@@H](c2ccc(C(F)(F)F)cc2)C[C@@H](OCc2ccc(CO)cc2)O1)N1CCOCC1 | i | -2.79
CCOC(=O)c1cn(CC(=O)Nc2cccc(Cl)c2C)nn1 | i | 0.9
COC(=O)c1cccnc1-n1c(=O)c2cccnc2n(Cc2cccc(C(F)(F)F)c2)c1=O | i | -0.19
CCOc1ccccc1C1C2C(=O)N(c3ccccc3)C(=O)C2ON1c1ccccc1 (stereo not drawn) | i | -1.13
CCOc1ccc2nc(Cl)c(/C=C/C(=O)c3ccco3)cc2c1 | i | 2.61
O=C(CCNC(=O)C1CCN(S(=O)(=O)c2ccc(F)cc2)CC1)NCc1cccnc1 | i | -1.75
O=S(=O)(Nc1cccc2c1CCCC2)c1ccc(Cl)cc1 | i | 1.27
CCOc1ccc(N=C2NN=C(c3cc(C)n(CC4CCCO4)c3C)CS2)cc1 (stereo not drawn) | i | 0.69
COC(=O)c1sc(NC(=O)COc2cccc3ccccc23)nc1C | i | -0.31
Cc1c(O)nc(SCC(=O)Nc2cccc(C(F)(F)F)c2)n(-c2ccccc2)c1=O | i | 0.7
CCc1ccc(NS(=O)(=O)c2ccc3[nH]cc(C(=O)N4CCCCC4)c(=O)c3c2)cc1 | i | -2.05
COc1ccc(C(=O)/C=C/c2ccc(C)cc2)c(OC(=O)c2ccc([N+](=O)[O-])cc2)c1 | i | 0.38
CC(Cc1ccccn1)NC(=O)CCc1nnc(C2CCCCC2)o1 (stereo not drawn) | i | 3.05
COC(=O)C12CC3CC(C1)CC(n1cnc(Cl)n1)(C3)C2 | i | -0.58
Cc1cc(F)ccc1S(=O)(=O)Nc1ccccc1C(=O)Nc1ncn[nH]1 | i | -0.05
CC(OC(=O)Cn1[nH]c(=O)c2ccccc2c1=O)C(=O)c1ccccc1 (stereo not drawn) | i | 1.27
CC1Cc2ccccc2N1S(=O)(=O)c1cccc(C(=O)OCC(=O)NCc2ccco2)c1 (stereo not drawn) | i | 0.06
CC(C)Cn1c(SCC(=O)NC2CCCc3ccccc32)nc(O)cc1=O (stereo not drawn) | i | 0.05
CCOC(=O)c1cnc2c(C(F)(F)F)cccc2c1N1CCN(C)CC1 | i | -0.15
CN1CCC2(CC1)N=C(c1ccc(F)cc1)C(=S)N2C(=O)c1ccc(C(C)(C)C)cc1 | i | -0.27
O=C(CCS(=O)(=O)c1ccc(Br)cc1)N1CCCCCC1 | i | 1.25
CCn1c(SCC(=O)c2c(N)n(C)c(=O)n(C)c2=O)nnc1-c1ccccc1 | i | 0.95
CCCCc1nc2ccccc2c(=O)n1NC(=O)c1c(O)c2ccccc2n(C)c1=O | i | 0.45
O=C(NCC(c1cccnc1)N1CCN(c2ccccc2F)CC1)c1ccccc1 (stereo not drawn) | i | -1.01
O=C1CN(c2ccccc2)C(=S)N1C(=O)c1ccccc1 | i | -0.03
Cc1ccc(O)c(NC(=O)c2cc([N+](=O)[O-])ccc2Cl)c1 | i | 1.41
CC(C)(C)NC(=O)C(c1ccccc1)N(C(=O)C1CSC(=O)C1)c1ccccc1 (stereo not drawn) | i | 1.23
COC(=O)C1=CN(Cc2ccc(OC)c(OC)c2)C=C(C(=O)OC)C1c1ccccc1F | i | -0.77
Cc1cc(SCC(=O)OCC(=O)NC(C)c2ccccc2)c(C)cc1Br (stereo not drawn) | i | -0.25
Cc1ccc(/C=N/NC(=O)c2csc3c2CCCC3)cc1 | i | -0.84
Cc1cccc(-c2noc(-c3ccno3)n2)c1 | i | -0.49
O=C(CN1CCN(c2ccccn2)CC1)Nc1ccccc1Br | i | 0.12
CSc1ccc(OC2CCCCC2NS(=O)(=O)c2ccc(Cl)cc2)cc1 (stereo not drawn) | i | -1.86
O=C(COc1ccccc1)Nc1ccccc1F | i | 0.61
Fc1ccc(COc2ccc(-c3nnco3)cc2)c(Cl)c1 | i | -1.36

Retrieved by structure from the entries so far, 2 records:
SMILES | KCNQ2 block | KCNQ2 block baseline
COC(=O)C1=CN(Cc2ccc(OC)c(OC)c2)C=C(C(=O)OC)C1c1ccccc1F | i | -0.77
O=C(CCS(=O)(=O)c1ccc(Br)cc1)N1CCCCCC1 | i | 1.25

The results go on.
SMILES | KCNQ2 block | KCNQ2 block baseline
COc1ccc2c(c1)nc(NCCCO)n2Cc1ccccc1 | i | -0.22
COc1cc(NC(=O)c2cccc([N+](=O)[O-])c2)ccc1NC(=O)c1cc2ccccc2o1 | i | -0.66
C=CCC(CC=C)(C(N)=O)c1ccccc1 | i | -0.06
CN(CC(=O)Nc1cccc(F)c1)C(=O)c1cccnc1Sc1ccccc1 | i | -0.58
N#C/C(=C/Nc1ccccc1)c1ccsc1 | i | -0.03
Cn1c(NC(=O)C2CCCO2)cc(=O)n(C)c1=O (stereo not drawn) | i | -0.86
O=C(c1ccc(F)cc1)c1c[nH]c(C(=O)NCCCN2CCOCC2)c1 | i | 0.44
O=C(OCC(=O)c1c[nH]c2ccccc12)c1ccc([N+](=O)[O-])s1 | i | 0.91
CC1(C)CC(CCN(Cc2ccccc2)C(=O)c2ccco2)(c2ccccc2)CCO1 (stereo not drawn) | i | 0.23
Cc1nnc(Nc2ccc3c(c2)ncn3C)c2ccccc12 | i | 0.4
Cc1ccc(C(C)C)c(OCC(=O)NNC(=O)Nc2ccccc2)c1 | i | 1.02
O=C1NC2(CCCCC2)C(=O)N1CC(=O)N(Cc1ccccc1)c1ccccc1 | i | -2.3
Cc1cc(C)c(OCCCCCn2ccnc2)c(C)c1 | i | -0.01
Cc1nn(Cc2ccccc2)c(Cl)c1C(=O)NCc1ccc(C)n1C | i | 2.61
CCOc1ccc(CN2CCNC(=O)C2CC(=O)NCCCn2ccnc2)cc1 (stereo not drawn) | i | 0.38
Cn1c(C(=O)O)cc2c(=O)n3ccccc3nc21 | i | -0.6
N=C1/C(=C\c2ccc(OC(=O)c3ccco3)cc2)C(=O)N=C2SC(N3CCCCC3)=NN12 | i | -0.45
CSCCC(NS(=O)(=O)c1ccc(Cl)cc1)C(=O)OCC(=O)NC12CC3CC(CC(C3)C1)C2 (stereo not drawn) | i | 0.24
O=C(CNc1ccc2ccccc2c1)N/N=C/C=C/c1cccc([N+](=O)[O-])c1 | i | 0.16
O=C(CNC(=O)c1ccc(Cl)cc1)NCCCn1ccnc1 | i | -0.45
c1ccc(-c2nnc(-c3ccco3)n2-c2ccccc2)cc1 | i | -0.23
COC(=O)/C(=C1\Oc2ccc(C(C)(C)C)cc2S1)C(F)(F)F | i | 1.14
COc1ccc(NC(C)C(=O)N/N=C/c2c(O)ccc3ccccc23)cc1 (stereo not drawn) | i | -0.02
c1cncc(CN=C2Nc3ccccc3CS2)c1 | i | -0.87
COc1ccc(CCNC(=O)Cc2ccc3c(c2)OCO3)cc1OC | i | -0.37
CC(NC(=O)c1ccncc1)c1ccc(Br)cc1 (stereo not drawn) | i | -0.74
COc1ccc(OCC(O)CNc2ccc(Br)cc2)cc1 (stereo not drawn) | i | 2.1
COC(=O)c1sc(N)c(C(=O)OC)c1CSc1nc2sc3c(c2c(=O)n1C)CCC3 | i | -0.94
Cc1ccccc1NC(=O)COc1cccc2c1CCNC2=O | i | 1.85
CC(C)n1c(SCc2ccccc2F)nc2c1c(=O)n(C)c(=O)n2C | i | -0.03

Structures above that have a cyano group, in the order listed:
SMILES | KCNQ2 block | KCNQ2 block baseline
Cc1cc(Oc2nc3c(C)cccn3c(=O)c2/C=C(\C#N)S(=O)(=O)c2ccccc2)ccc1Cl | i | 0.45
N#C/C(=C/Nc1ccccc1)c1ccsc1 | i | -0.03

Entries of single compounds, quoted from the list. Values in the order: KCNQ2 block	KCNQ2 block baseline
Cc1cc(SCC(=O)OCC(=O)NC(C)c2ccccc2)c(C)cc1Br (stereo not drawn) as listed: i	-0.25
Cc1ccccc1NC(=O)COc1cccc2c1CCNC2=O as listed: i	1.85
CC(Cc1ccccn1)NC(=O)CCc1nnc(C2CCCCC2)o1 (stereo not drawn) as listed: i	3.05
O=C(CCNC(=O)c1ccc(Cl)cc1)NCCC1=CCCCC1 as listed: i	0.68

Next part
SMILES | KCNQ2 block | KCNQ2 block baseline
CCCCc1nnc(NC(=O)C2CCN(c3ncnc4sc(C)c(C)c34)CC2)s1 | i | 0.36
COCCCn1c(=O)c2ccccc2n(Cc2ccccc2C)c1=O | i | 0.23
CC(C)C(=O)Nc1nnc(S(=O)(=O)N2CCCCCC2)s1 | i | 1.96
C#CCN1C(=O)C(O)(CC(=O)c2ccc3c(c2)OCCO3)c2ccccc21 (stereo not drawn) | i | -0.47
O=C(N1CCN(c2ccccc2)CC1)C(F)(F)C(F)F | i | -1.51
CC(=O)Nc1nc2n(n1)C(c1ccccc1)C=C(c1ccccc1)N2 (stereo not drawn) | i | 1.21
Fc1ccc(SCCc2ccccn2)cc1 | i | 1.11
COc1ccc2c(Cl)c(C(=O)NN)sc2c1 | i | 0.82
Cc1ccc(S(=O)(=O)Nc2ccc(N3CCCCC3)cc2)cc1 | i | 0.11
CO[C@H]1O[C@H](CBr)[C@@H](OC(=O)c2ccccc2)[C@H](O)[C@H]1O | i | -1.75
COC(=O)c1ccc(OC(=O)C2CC(=O)N(c3ccc(C)cc3C)C2)cc1 (stereo not drawn) | i | -0.66
C/C(=N\NC(=O)Cn1nc(C)c([N+](=O)[O-])c1C)c1ccc(Cl)s1 | i | 1.35
CS/C(=C\C(=O)c1ccco1)Nc1ccccc1Cl | i | 2.85
CN1CCN(Cc2cn[nH]c2-c2ccc(F)cc2F)[C@@H](c2ccccc2)C1 | i | -0.02
Cc1cc(C)c(S(=O)(=O)NCc2cccnc2)cc1C | i | -0.76
CCn1c(=O)cc(OCC(=O)N2CCN(c3ccc(F)cc3)CC2)c2ccccc21 | i | 0.73
CCOc1cc(C(=O)O)cc(Cl)c1OC | i | -0.45
O=C(NCCC1CCCCN1S(=O)(=O)c1cccs1)C(=O)Nc1ccc(F)cc1F (stereo not drawn) | i | 2.04
Cc1ccc(NC(=O)c2c(Cl)nc3ccccn23)cc1 | i | -0.05
Nc1nonc1-n1nnc(C(=O)N/N=C/c2c[nH]c3ccccc23)c1-c1ccccc1 | i | -0.13
CCOC(=O)c1cccnc1SC(CC)C(=O)N1CCOCC1 (stereo not drawn) | i | 0.16
CCCCCC(=O)c1c(C)[nH]c(C(=O)OCC)c1C | i | 0.7
CN1CCN(C(CNS(=O)(=O)c2ccc(Cl)cc2)c2cccnc2)CC1 (stereo not drawn) | i | 0.53
Cc1cccc(N2CC(C(=O)Nc3ccc(S(=O)(=O)N4CCCCC4)cc3)CC2=O)c1C (stereo not drawn) | i | -1.07
CCN(CC)C(=O)CN(c1cccc(OC)c1)S(=O)(=O)c1ccc(C)cc1 | i | 1.05
CCN(c1ccccc1)S(=O)(=O)c1ccc(Cl)c(NC(=O)COC(=O)c2ccc[n+]([O-])c2)c1 | i | 1.28
CCn1c(=O)c([N+](=O)[O-])c(Cl)c2ccccc21 | -6.65* | 0.37*
